Mtb growth: M. tuberculosis H37Rv growth inhibitors, H37Rv strain (AID 1626); M. tuberculosis H37Rv growth inhibition; higher % means a stronger effect; inhibition, % at 10 µM, or IC50 in µM where a hit was titrated; hit rate 0.95% among 220,000;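 active = confirmed in a dose series; inconclusive = inhibition above 80% but not taken into the dose series; inactive = below 80% or under 30% at every dose of the series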;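 also: bacteria incubated seven days before Alamar blue readout; 0% = bacteria only wells and 100% = bacteria with antibiotic wells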
RecA intein inh: Mtb RecA intein splicing inhibitors, primary screen, biochemical, fluorescence, HTS | hit rate 0.75% among 290,000 | Protein RecA (Mycobacterium tuberculosis (strain ATCC 25618 / H37Rv)), P9WHJ3 | cell-free RecA intein splicing | inhibition, %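 (about 9 µM by stock and volumes)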 | AID 2221, 2009; in the data active = inhibition above about 30%; inconclusive = no clear call, values can overlap the other calls;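 also: 0% = vehicle wells and 100% = reference inhibitor control wells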
Target sequence (P9WHJ3 whole entry, looked up): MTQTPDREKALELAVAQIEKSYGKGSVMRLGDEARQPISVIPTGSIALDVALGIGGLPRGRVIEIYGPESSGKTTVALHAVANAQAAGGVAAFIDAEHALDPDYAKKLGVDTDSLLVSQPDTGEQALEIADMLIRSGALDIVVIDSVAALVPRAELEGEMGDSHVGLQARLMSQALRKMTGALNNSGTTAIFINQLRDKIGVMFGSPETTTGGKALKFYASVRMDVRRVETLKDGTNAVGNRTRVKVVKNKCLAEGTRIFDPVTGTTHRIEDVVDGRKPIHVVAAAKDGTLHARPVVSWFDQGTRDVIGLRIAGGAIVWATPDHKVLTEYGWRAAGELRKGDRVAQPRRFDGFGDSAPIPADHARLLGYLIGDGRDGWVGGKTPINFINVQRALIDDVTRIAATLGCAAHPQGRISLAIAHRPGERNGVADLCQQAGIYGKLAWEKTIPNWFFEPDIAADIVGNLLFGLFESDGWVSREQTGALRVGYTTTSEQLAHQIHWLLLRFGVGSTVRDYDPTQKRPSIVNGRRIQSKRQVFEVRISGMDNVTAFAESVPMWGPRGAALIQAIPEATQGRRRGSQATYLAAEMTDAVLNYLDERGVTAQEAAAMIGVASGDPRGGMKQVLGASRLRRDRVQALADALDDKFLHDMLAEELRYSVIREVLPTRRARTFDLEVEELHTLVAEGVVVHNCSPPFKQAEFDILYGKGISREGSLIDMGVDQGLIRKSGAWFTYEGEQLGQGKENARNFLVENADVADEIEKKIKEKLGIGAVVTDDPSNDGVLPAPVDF
Mtb betalactam: beta-lactam sensitization of Mtb H37Rv, H37Rv. M. tuberculosis H37Rv growth with meropenem, percent inhibition; hits of this screen are not shown here. hit rate 0.27% among 330,000. inhibition, % at 25 µM;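 active = about 74% or more and at least 40 points above the plate without the antibiotic, then above 30% in a dose series; inconclusive = first-round hits that could not be retested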;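 also: growth measured after seven days incubation then overnight dye step; 0% = bacteria only wells and 100% = bacteria with antibiotic; twin plates without the antibiotic show which effects depend on it; some results filed as inactive read as strong as hits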
Arbovirus inh: antivirals against arbovirus infection, primary screen, cell-based, full library, 10K replicate subset; inhibition, % at 10 µM; hit rate 0.37% among 200,000; AID 1251, 2008; arbovirus infection cell-based antiviral screen;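 active = inhibition from about 30%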;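 also: bluetongue infection of BSR cells; cell survival read as ATP light after 72 h; 0% = infected wells without compound and 100% = uninfected wells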
YopH inh: YopH tyrosine phosphatase inhibitors, primary screen, biochemical, fluorescence Ex485/Em525; inhibition, %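 (about 10 µM by stock and volumes)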; hit rate 0.16% among 140,000; AID 898, 2007;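 active = inhibition of 50% or more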;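 also: controls were vehicle for no effect and minimum signal wells for full effect; inactives centre near -20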
Arbovirus inh repeat: second read-out of Arbovirus inh, no call of its own (marks repeat the call); inhibition, %; measured here: 10K subset replicate screen; many hits read low in the repeat;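 first of two repeat runs on a subset; 0% = infected and 100% = uninfected wells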
An asterisk follows results filed as active; ? = inconclusive; nt = no result given.

SMILES | Mtb growth | RecA intein inh | Mtb betalactam | Arbovirus inh | YopH inh | others
Cc1ccc(Sc2ncccc2C(=O)O)cc1C | -5% | -0.3 | -3 | -2 | -48
O=C1CSC(c2ccccc2)N1Cc1ccccc1 (stereo not given) | nt | 0.1 | 2 | nt | nt
Cc1ccccc1CNC(=O)C1CCCN(c2cnccn2)C1 (stereo not given) | nt | 0.5 | -6 | nt | nt
COc1ccc(S(=O)(=O)N2CCCC(C(=O)NCCCn3ccnc3)C2)cc1OC (stereo not given) | nt | -0.6 | 2 | nt | nt
CCOC(=O)c1ccc(NC(=O)CC2S/C(=N/N=C3/NC(=O)CS3)NC2=O)cc1 (stereo not given) | 10% | -1.6 | 1 | -2 | nt
CSc1nc2ccc3nc(NC(=O)c4ccc(Cl)s4)sc3c2s1 | -3% | -1.9 | 0 | -1 | -29
CCOC(=O)C1CCCN(CC(=O)c2ccc(F)cc2)C1 (stereo not given) | nt | 0.5 | -1 | nt | nt
CCCOC(=O)c1ccc(NC(=O)C2C3CCC(C3)C2C(=O)O)cc1 (stereo not given) | ? | 3.0 | 85 | 10 | -14
Cc1cc(C(=O)NC2CCCC2)c2ccccc2n1 | nt | -2.2 | 2 | nt | nt
c1coc(CN2CNc3nc4ccccc4n3C2)c1 | 4% | -4.2 | 0 | nt | nt
CCOC(=O)C1=C(C)N(CC)C(=S)NC1c1ccccc1OC(F)F (stereo not given) | 4% | nt | -4 | 3 | nt
COc1ccc(N(CC(=O)N/N=C/c2cccnc2)S(=O)(=O)c2ccccc2)c(OC)c1 | nt | 0.2 | -4 | nt | nt
Cc1sc2nc(SCC(=O)Nc3ccc(S(N)(=O)=O)cc3)[nH]c(=O)c2c1C | nt | -2.5 | 2 | nt | nt
CCOc1ccc(N=C2Sc3nc4ccc(C)cc4cc3CN2CCOC)cc1 | 63% | 4.5 | 74 | 2 | nt
O=C(NCCc1ccccc1)C1CCC(CNS(=O)(=O)c2ccc(F)cc2)CC1 (stereo not given) | nt | 4.0 | 4 | nt | nt
O=C(O)CCC(=O)Nc1ccc(S(=O)(=O)N2CCCC2)cc1 | -11% | -0.2 | -3 | 4 | -6
CCOc1ccc(CNCc2ccc(C(=O)O)cc2)cc1OC | -2% | -0.9 | -14 | 3 | nt
CN(C(=O)COC(=O)c1ccccc1NC(=O)c1ccco1)C1CCS(=O)(=O)C1 (stereo not given) | -5% | 11 | -5 | 7 | nt
CC1(C)CC(=O)C(C=NCCC2=CCCCC2)=C(O)C1 | -6% | -1.1 | 1 | -1 | -36
O=C(NCC(c1ccco1)N1CCCCC1)c1ccc(S(=O)(=O)Nc2ccccc2)cc1 (stereo not given) | nt | 1.9 | -8 | nt | nt
O=C(CSCc1ccc(Cl)cc1)NN=C1CCCC1 | ? | -1.5 | 84 | -5 | -24
O=C(CSc1ncccn1)Nc1ncc(C(F)(F)F)cc1Cl | 0% | 10 | -7 | -3 | nt
Cn1c(CNC(=O)c2cccs2)nnc1SCC(=O)Nc1ccc(Cl)cc1 | -3% | 0.4 | -2 | -24 | -32
O=C(NCc1ccccn1)c1n[nH]c(=O)c2ccccc12 | 0% | 1.0 | -5 | nt | nt
O=c1[nH]c(C2CCN(S(=O)(=O)/C=C/c3ccccc3)CC2)nc2c1nnn2Cc1ccccc1 | nt | 4.7 | 86 | nt | nt
Continued:
SMILES | Mtb growth | RecA intein inh | Mtb betalactam | Arbovirus inh | YopH inh | others
COc1ccc(C(=O)Nc2ccccc2C(=O)NC(C)C)cc1OC | 4% | 1.0 | -3 | -1 | -9
CC1(C)CC(CC(=O)NC(=S)Nc2ccc([N+](=O)[O-])cc2)C(=O)O1 (stereo not given) | -6% | -3.2 | -6 | -8 | 0
O=C(Nc1ccc(O)cc1)/C(=C\c1ccncc1)NC(=O)c1ccccc1 | -4% | 0.1 | -5 | -3 | nt
CCOc1ccccc1NC(=O)Nc1ccc2c(c1)CCC2 | nt | -1.5 | -6 | nt | nt
Cc1ccc(C(=O)Nc2ccc(C)c(S(=O)(=O)N3CCOCC3)c2)c(C)c1 | nt | 3.3 | -15 | nt | nt
CCOC(=O)c1cn(-c2nc(-c3ccc(Cl)cc3)cs2)c2c(F)c(N3CC(C)OC(C)C3)c(F)cc2c1=O (stereo not given) | -5% | nt | nt | -5 | -21
CN(/N=C/c1ccncc1)c1cnn(-c2ccc(F)c(Cl)c2)c(=O)c1Cl | -11% | -0.9 | 6 | 10 | -29
C/C(=N\NC(=O)c1ccccc1O)c1ccc(NC(=O)Cc2ccccc2)cc1 | nt | -1.4 | -9 | nt | nt
CC(C)NC(=O)COc1coc(CN2CCN(c3ccccc3F)CC2)cc1=O | nt | -4.0 | 1 | nt | nt
Clc1ccc(OCCN2CCOCC2)cc1Cl | 0% | nt | -2 | -5 | -18
CC(Sc1ccc(Cl)cc1)C(=O)NCc1ccc2c(c1)OCO2 (stereo not given) | 11% | 3.2 | -7 | 4 | -1
CSc1nc2ccc3nc(NC(=O)c4ccccc4)sc3c2s1 | -4% | 1.9 | 3 | 15 | -38
CCOc1ccc2[nH]c(=O)c(CN(CCO)C(=O)c3ccccc3F)cc2c1 | -5% | -1.8 | -14 | 1 | -20
Cc1ccc(C)c(N2CCN(S(=O)(=O)c3ccc4c(c3)CC(C)N4C(=O)C3CC3)CC2)c1 (stereo not given) | nt | 0.0 | 2 | nt | nt
O=c1[nH]c(O)c(C=Nc2ccccc2Oc2ccccc2)c(=O)[nH]1 | 5% | nt | -9 | nt | nt
Cc1cccc(C(=O)Nc2ccc(C(=O)/C=C/c3ccncc3)cc2)c1 | nt | 22 | 100 | nt | nt
CNC(=O)NC(=O)CSc1nc2cc(C(=O)OC)ccc2c(=O)n1-c1ccccc1 | -8% | -3.1 | -5 | 3 | -11
Cc1cc([N+](=O)[O-])ccc1NC(=O)C1CCCO1 (stereo not given) | -9% | 3.5 | 0 | 1 | -26
Cc1cc(CNC(=O)C(C)n2nc(C)c([N+](=O)[O-])c2C)c2ccccc2n1 (stereo not given) | -4% | -5.9 | -2 | 9 | nt
Cc1cc(C)nc(Nc2n[nH]c(COc3cccc4ccccc34)n2)n1 | nt | -1.1 | nt | 0 | -25
O=C1CC(c2ccc3c(c2)OCCO3)Oc2ccccc21 (stereo not given) | nt | 2.8 | 3 | nt | nt
CCCCN(C)CCNC(=O)c1cc2c(-c3ccccc3F)nn(C)c2s1 | nt | -2.0 | 7 | nt | nt
O=C(CSc1ncnc2nc[nH]c12)Nc1ccccc1C(F)(F)F | nt | -3.1 | -5 | 2 | -38
O=S(=O)(Nc1nc2ccccc2nc1NCC1CCCO1)c1ccccc1 (stereo not given) | -3% | 1.5 | -4 | nt | nt
Cc1ccc2[nH]c3c(c2c1)CCN(C)C3 | nt | -8.4 | -4 | nt | nt
Carrying on:
SMILES | Mtb growth | RecA intein inh | Mtb betalactam | Arbovirus inh | YopH inh | others
Fc1ccc(-c2csc3ncnc(N4CCc5ccccc5C4)c23)cc1 | 8% | 23 | ? | -31 | -22
O=C1CCc2cc(S(=O)(=O)Nc3ccccc3F)cc3c2N1CCC3 | nt | -1.2 | 1 | nt | nt
Cc1c(C)c2ccc(OCC(=O)NC3CCN(Cc4ccccc4)CC3)cc2oc1=O | nt | -1.6 | 4 | nt | nt
O=C(CNC(=O)C(c1ccccc1)c1ccccc1)N/N=C/c1cccnc1 | -4% | -0.2 | 0 | nt | nt
Cc1cccc(/C=N/n2c(-c3cc(-c4ccccc4)n[nH]3)n[nH]c2=S)c1 | -16% | 0.5 | -4 | 7 | -27
CC1CN(c2ccc(S(=O)(=O)N3CCCC3)cn2)CC(C)O1 (stereo not given) | -5% | -1.1 | 0 | nt | nt
Cc1ccc(CNCc2cc3c(C(C)(C)C)nn(-c4ccccc4)c3[nH]c2=O)cc1 | 8.3µM* | 1.4 | 100 | -8 | -35
COCCNC(=O)COc1cccc(Oc2ccccc2)c1 | 7% | 0.6 | 8 | -2 | -34
CC1(C)CC(=O)C(C=NCCN2CCN(C(=O)Cc3ccc(F)cc3)CC2)=C(O)C1 | 10% | -1.1 | -2 | 0 | -25
CCN1C(=O)c2ccc(C(=O)Nc3ccc(O)cc3C)cc2C1=O | nt | 1.5 | -30 | nt | nt
Cc1cccc(C(=O)NNC(=O)c2ccc(S(=O)(=O)N3CCOCC3)cc2)c1 | nt | -0.5 | -4 | nt | nt
Cc1cc(C)c(S(=O)(=O)N2CCCCC2CCNC(=O)C(=O)NCc2ccco2)c(C)c1 (stereo not given) | nt | 2.9 | 5 | nt | nt
Cc1ccc(C2(CCNS(=O)(=O)c3ccc(C)cc3)CCOC(C(C)C)C2)cc1 (stereo not given) | 11% | 4.9 | 11 | -7 | -16
CCOc1ccc(N=C(NC#N)SCC)cc1 | 7% | nt | -6 | -7 | -16
COc1ccc(-n2cc(CNCCc3cnc[nH]3)c(-c3cccc(F)c3)n2)cc1 | 3% | 0.7 | 9 | -25 | nt
Cc1nn(C(C)C(=O)NCCCN2CCCC2)c(=O)c2nn(-c3ccccc3)c(C)c12 (stereo not given) | nt | 4.4 | -3 | nt | nt
Cc1nnc(SCc2nc3ccccc3nc2C)s1 | -9% | 1.1 | -12 | 5 | -14
CC(C)C1S/C(=N/N=C/c2cccs2)NC1=O (stereo not given) | nt | -0.7 | 45 | -1 | -10
CC(C)Cc1nc2oc3c(NCC4CCCO4)ncnc3c2c2c1CCC2 (stereo not given) | 4% | 2.7 | -6 | -31 | 2
Cc1cc(=O)n2[nH]c(C(=O)O)nc2n1 | -6% | -2.1 | -7 | 4 | -10
Cc1c(N=Cc2cc3c(cc2Cl)OCO3)c(=O)n(-c2ccccc2)n1C | 1% | -4.9 | -14 | nt | nt
C=CCOC(=O)C1=C(C)NC(C)=C(C(=O)OCC=C)C1c1cccs1 | 11% | 4.4 | -4 | -6 | -12
Cc1cccc(-c2ncc(S(=O)(=O)C(C)(C)C)c(N)n2)c1 | -3% | -3.2 | -4 | nt | nt
CCOC(=O)/C(=N/Nc1ccc(Cl)cc1)S(=O)(=O)c1ccccc1 | 13% | 1.9 | 88 | -12 | 20
Cc1ccc(NC(=O)CSc2nc3ccc(Nc4nc(N5CCOCC5)nc(N5CCOCC5)n4)cc3s2)cc1 | nt | -2.7 | -14 | nt | nt

Quoted at random: 6 entries already listed, in no set order.
SMILES | Mtb growth | RecA intein inh | Mtb betalactam | Arbovirus inh | YopH inh | others
O=C(Nc1ccc(O)cc1)/C(=C\c1ccncc1)NC(=O)c1ccccc1 | -4% | 0.1 | -5 | -3 | nt
CSc1nc2ccc3nc(NC(=O)c4ccccc4)sc3c2s1 | -4% | 1.9 | 3 | 15 | -38
O=C(CSc1ncccn1)Nc1ncc(C(F)(F)F)cc1Cl | 0% | 10 | -7 | -3 | nt
Cc1cccc(/C=N/n2c(-c3cc(-c4ccccc4)n[nH]3)n[nH]c2=S)c1 | -16% | 0.5 | -4 | 7 | -27
Cc1cccc(-c2ncc(S(=O)(=O)C(C)(C)C)c(N)n2)c1 | -3% | -3.2 | -4 | nt | nt
CCOC(=O)C1CCCN(CC(=O)c2ccc(F)cc2)C1 (stereo not given) | nt | 0.5 | -1 | nt | nt

More results.
SMILES | Mtb growth | RecA intein inh | Mtb betalactam | Arbovirus inh | YopH inh | others
O=C(NC1CCCCCCC1)C1c2ccccc2C(=O)N1Cc1cccs1 (stereo not given) | 0% | -0.3 | -9 | -12 | -20
O=C(Cc1ccccc1)Nc1ccccc1Oc1ccccc1 | 2% | 0.4 | -9 | 2 | -24
CCOC(=O)c1sc(NC(=O)CSc2n[nH]c(C)n2)nc1C | -7% | -0.2 | 2 | -1 | nt
CCCCCCCN(C(=O)CCl)c1cccc(C)c1 | 12% | -2.3 | 54 | -19 | -3
O=C(/C=C/c1ccccc1)c1c(O)n(CCc2ccccc2)c(=O)[nH]c1=O | 9.7µM* | 8.7 | 99 | 29 | -23
Cc1cccc(C(C)C)c1NC(=O)COC(=O)CN1C(=O)C2CC=CCC2C1=O (stereo not given) | nt | -3.7 | -1 | nt | nt
CC1CC1C(=O)OCC(=O)NNC(=O)COc1ccc(Br)cc1 (stereo not given) | nt | -2.0 | -10 | nt | nt
CCC1(C)Cc2c(sc3nc4n(c(=O)c23)CCS4)CO1 (stereo not given) | -2% | 0.6 | -1 | -8 | -10
CCOc1ccc(C(=O)N2CCN(c3ccccn3)CC2)cc1 | nt | -5.7 | -7 | nt | nt
Cc1cc(C)c2c(=O)n(CC(=O)N3CCC(N4CCCCC4)CC3)sc2n1 | 1% | -1.1 | -4 | -4 | -20 | Arbovirus inh repeat=-8
CCOc1ccc(C(C)NC(=O)Cc2ccccc2)cc1OCC (stereo not given) | 1% | -2.1 | -12 | 2 | -17

Bioassay records as filed in PubChem.

The list is partial (hit frequency here may not be typical).
